# Bfl-1 A1 inh: inhibitors of the anti-apoptotic protein A1, read as caspase activation; MEF A1-2A-BIM cells, Caspase-Glo 3/7 luminescence, 3 h; percent of clofoctol response, vehicle zero; caspase activation, % (test concentration not listed); actives 0.066% (n = 330,000); AID 2462;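 active = over half of replicate activation scores above 10%, or exactly half above 10 with the replicate mean above 10; inconclusive = replicate mean below 10 yet half the replicates above 10; inactive = over half of replicates below 10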;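 note: wells of about 30 µL received 50 nL stock; many hits fall short of the cut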
# T cruzi repl: T. cruzi replication inhibition. T. cruzi beta-gal in NIH3T3, luminescence, 90 h. AID 1885. actives 1.4% (n = 300,000). inhibition, % (concentration not given with the values);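 active = mean inhibition across valid replicates above about 55%, limit read from the data; inconclusive = mean below that limit but half or more replicates reach it; inactive = mean below it, under half of replicates reach it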;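 note: signal also drops with host cell toxicity which is not excluded here; 0% = plate median of DMSO wells and 100% = zero luminescence signal; higher percent means less beta-gal luminescence so fewer parasites; stock transfer was 50 nL into about 50 µL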
# Ecoli growth: inhibitors of Escherichia coli growth. AID 1053175. OD600 absorbance (no concentration beside the values). actives 0.21% (n = 330,000). OD600, 23 h; active compounds read low;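 active = OD600 absorbance below the run mean of sample wells minus 3.6 SD, in any replicate, cut at about 0.56 in these data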;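 note: stock transfer was 300 nL into about 60 µL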
# Ecoli rRNA inh: inhibits bacterial ribosomal RNA function over humanized ribosomes; E. coli WT GFP vs humanized-ribosome RFP mutants, fluorescence, 24 h; active compounds read low; DMSO median 0, no signal -100; GFP signal change (wild-type ribosome), % (test concentration not listed); actives 1.6% (n = 350,000); AID 720706;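 active = significant combined selectivity score with lowered wild-type GFP, culture density cut under 30%, mutant RFP and density less affected; inactive = any of these conditions unmet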; note: one replicate is shown; some compounds called inactive have numbers as strong as hits
# AF4-AF9 inh: blocks AF4 peptide binding to human AF9; AlphaScreen, biotin-AF4 peptide binding to FLAG-AF9; P42568; actives 0.47% (n = 350,000); AID 651704; inhibition, % at 10 µM;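 active = every replicate reaching a set inhibition limit, whatever the replicate mean, cut at about 25% in these data; inconclusive = mean inhibition reaches that limit but some replicates miss it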;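 note: 0% = plate neutral control median and 100% = total signal loss; the record names both 10 and 1 µM as test concentration; the first replicate is given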
# Target sequence (P42568 whole entry, looked up): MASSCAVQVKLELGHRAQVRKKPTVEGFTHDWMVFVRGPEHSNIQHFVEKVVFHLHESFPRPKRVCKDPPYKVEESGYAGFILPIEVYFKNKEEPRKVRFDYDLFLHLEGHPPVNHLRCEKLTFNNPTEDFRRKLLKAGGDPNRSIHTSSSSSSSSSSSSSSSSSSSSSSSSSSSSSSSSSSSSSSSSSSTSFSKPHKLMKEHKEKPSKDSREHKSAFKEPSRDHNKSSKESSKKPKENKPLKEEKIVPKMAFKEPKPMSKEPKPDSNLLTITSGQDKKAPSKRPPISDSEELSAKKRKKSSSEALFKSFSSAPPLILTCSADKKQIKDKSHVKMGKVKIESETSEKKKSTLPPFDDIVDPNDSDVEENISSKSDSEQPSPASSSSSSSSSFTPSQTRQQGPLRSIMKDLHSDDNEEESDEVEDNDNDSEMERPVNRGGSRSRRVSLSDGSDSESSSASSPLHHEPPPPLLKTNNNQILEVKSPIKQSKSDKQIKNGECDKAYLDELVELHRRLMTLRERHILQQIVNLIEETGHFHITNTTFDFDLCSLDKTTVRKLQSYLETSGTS
# Beta apoptosis: blocks beta cell apoptosis | actives 0.8% (n = 300,000) | INS-1E cytokine-induced death, ATP luminescence, 48 h; percent of positive-control rescue, neutral wells zero | protection from apoptosis, % (test concentration not listed);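 active = all replicates at 75% or more, or half of them and the mean; inconclusive = half reach 75% but not the mean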;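 note: 0% = cytokine-treated negative control wells and 100% = positive control rescue; higher means more ATP so stronger rescue from cytokine killing; wells of about 40 µL received 100 nL stock; the first replicate is given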
# UCH37 inh: inhibitors of human deubiquitinating enzyme UCH37; Q9Y5K5; purified proteasome/UCH37, Ub-AMC cleavage fluorescence; inhibition, % (concentration not given with the values); actives 0.33% (n = 330,000); AID 588478;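 active = mean of two replicates above 20%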;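 note: 0% = compound-free wells with enzyme and 100% = wells lacking proteasome; stock transfer was 100 nL into about 20 µL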
# Target sequence (Q9Y5K5 whole entry, looked up): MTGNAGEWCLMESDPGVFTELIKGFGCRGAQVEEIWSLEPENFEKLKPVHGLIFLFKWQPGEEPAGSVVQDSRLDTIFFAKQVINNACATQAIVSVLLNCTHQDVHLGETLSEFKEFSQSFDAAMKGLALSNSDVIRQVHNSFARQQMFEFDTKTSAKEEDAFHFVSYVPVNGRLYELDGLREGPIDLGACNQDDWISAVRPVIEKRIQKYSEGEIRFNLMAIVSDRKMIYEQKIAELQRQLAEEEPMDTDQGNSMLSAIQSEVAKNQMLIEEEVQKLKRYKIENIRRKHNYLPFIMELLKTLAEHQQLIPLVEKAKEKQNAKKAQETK
#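 System: Proteasome-associated human UCH37 deubiquitinase; Input: 0.15 nM proteasome in added enzyme buffer; Also added: Ub-AMC substrate from 1 µM stock; Incubation: 30 min compound-proteasome preincubation then 25 min substrate reaction, room temperature; Detection: fluorescence, ex 355 nm, em 460 nm; Read-out: % inhibition of Ub-AMC cleavage fluorescence; Benchmarks: no-proteasome and no-compound wells.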
# FGF22 binding: binders of recombinant human FGF22 by thermal shift; Q9HCT0; SYPRO orange fluorescence; percent of sucrose octasulfate shift, DMSO zero; calls only at 9.99 µM; actives 1.5% (n = 340,000); AID 651658;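 active = melting point raised past a set limit in the mean and every replicate; inconclusive = no clear call; three in four hits are not shown here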
# Target sequence (Q9HCT0 whole entry, looked up): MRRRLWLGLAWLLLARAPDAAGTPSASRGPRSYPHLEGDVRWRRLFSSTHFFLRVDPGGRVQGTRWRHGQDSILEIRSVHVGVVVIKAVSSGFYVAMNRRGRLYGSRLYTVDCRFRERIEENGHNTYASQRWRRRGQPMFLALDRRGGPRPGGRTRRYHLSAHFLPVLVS
# Ecoli rRNA inh OD600: second read-out of Ecoli rRNA inh, no call of its own (marks repeat the call); OD600 change, %; measured here: OD600 growth;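 optical density of the mix in the first replicate; 0 = DMSO median and -100 = no signal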
# Ecoli rRNA inh RFP: further read-out of Ecoli rRNA inh, marked with its call; RFP signal change, %; measured here: RFP humanized mutant strains;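 first replicate; 0 = DMSO median and -100 = no signal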
# Active calls of the source: *; i = inactive; ? = inconclusive; / = no result given.
SMILES,Bfl-1 A1 inh,T cruzi repl,Ecoli growth,Ecoli rRNA inh,Ecoli rRNA inh OD600,Ecoli rRNA inh RFP,AF4-AF9 inh,Beta apoptosis,UCH37 inh,FGF22 binding
Cc1ccc(N(C(=O)CNC(=O)c2ccco2)C(C(=O)NCC2CCCO2)c2ccccc2)cc1 (centres undefined),0.1,6,0.72,/,/,/,/,-5,5.7,/
Cc1ccccc1CC(=O)Nc1ccc(S(=O)(=O)N2CCN(C)CC2)cc1,-0.5,-19,0.68,5,7,-1.8,-0.2,-4,-1.7,i
O=C(CCN1C(=O)c2ccccc2S1(=O)=O)NCc1ccco1,0.3,-6,0.69,/,/,/,/,-1,4.6,/
O=C(COc1ccc(=O)n(-c2ccccc2)n1)Nc1ccccc1,-0.8,-3,0.7,0,4,0.2,1.1,-12,1.1,i
O=C(CNC(=O)c1ccc(Cl)cc1)OCCN1C(=O)c2ccccc2C1=O,0.8,/,0.66,0,4,-1.6,1.0,0,1.7,i
CCC(C)[C@H](NC(=O)Nc1ccc(S(N)(=O)=O)cc1)C(=O)O (some centres undefined),1.5,4,/,/,/,/,/,-7,3.0,/
COC(=O)C1=C(C(=O)OC)[C@@H]2N(Cc3ccccc3)c3ccccc3[C@@]23C[C@@H](C(=O)OC)N(C(=O)CC(C)C)C3=N1,0.4,20,/,11,-20,-6.6,5.1,12,4.8,i
COc1cc(NC(=O)NCC2CCN(Cc3ccccc3C)CC2)cc(OC)c1OC,-0.4,8,0.68,10,3,2.8,0.6,-2,0.9,i
O=C(Cc1cccc(C(F)(F)F)c1)OCC(=O)N1CCN(S(=O)(=O)c2ccc(Cl)cc2)CC1,1.4,8,0.65,-4,-35,-1.1,2.8,2,5.9,i
COc1ccc2c(CC(=O)N[C@@H](Cc3c[nH]c4ccccc34)C(=O)O)cc(=O)oc2c1,-0.3,-3,0.66,11,6,2.4,2.1,-5,-8.6,i
O=C(COC(=O)c1ccc(F)cc1F)c1ccc[nH]1,/,/,0.6,-5,3,-4.2,-38,/,-0.4,i
CS(=O)(=O)c1ccccc1-c1nc(-c2cc(C(F)(F)F)cc(C(F)(F)F)c2)no1,1.0,-4,0.73,/,/,/,/,-2,4.6,/
CCCCOc1cc(C)nc(NCc2ccccc2)n1,1.0,30,0.68,/,/,/,/,4,0.9,/
CCOc1ccc(NC(=O)CN(C)C(=O)c2ccc(N3CCCCC3)c([N+](=O)[O-])c2)cc1OCC,0.2,5,0.64,-13,-28,3.5,3.6,-5,1.9,i
COc1cccc(-n2c(SCC(=O)NC(C)(C)C)nnc2-c2ccoc2C)c1,0.6,-35,0.67,/,/,/,/,1,1.9,/
O=C(Cn1cc(C(F)(F)F)ccc1=O)NCc1ccc(F)cc1,1.5,-3,0.69,8,4,-1.7,-0.2,-5,0.1,i
O=C(Nc1cc(S(=O)(=O)N2CCCCC2)ccc1Cl)c1ccccc1NS(=O)(=O)c1ccc(F)cc1,0.2,-21,0.68,/,/,/,-1.9,130*,-60,i
COc1cccc2cc(C(=O)NCCc3c[nH]c4ccccc34)c(=O)oc12,-0.1,4,0.71,-3,0,2.3,-5.6,-5,-2.3,i
COc1cc(CNc2nnnn2C)ccc1OCc1ccc(F)cc1Cl,0.1,-2,0.7,/,/,/,0.2,-4,-0.6,i
CC1=C(C(=O)Nc2ccccc2)C(c2coc3ccccc3c2=O)C2=C(CCCC2=O)N1 (centres undefined),1.1,10,0.69,-24,-21,-7.0,2.7,4,7.4,i
O=C(OCc1ccccc1)N1CCOCCN(C(=O)OCc2ccccc2)CCOCC1,-0.3,-2,0.68,-25,-22,2.1,-0.5,3,3.4,i
COC(=O)C1=C(C)N(Cc2ccccc2)C(=NCCCCO)N[C@H]1c1cccc(C(F)(F)F)c1,0.9,/,/,-23,-45,-6.9,2.9,-4,1.4,i
COC1=C(c2ccccc2)C(=O)c2ccccc2C1=O,-0.3,-27,0.64,/,/,/,/,13,27*,/
O=C(Nc1cccnc1)C1OCCc2ccccc21 (centres undefined),0.2,3,0.74,/,/,/,/,0,2.0,/

# 3 entries already listed, arranged by count of non-hydrogen atoms, rising.
SMILES,Bfl-1 A1 inh,T cruzi repl,Ecoli growth,Ecoli rRNA inh,Ecoli rRNA inh OD600,Ecoli rRNA inh RFP,AF4-AF9 inh,Beta apoptosis,UCH37 inh,FGF22 binding
CCCCOc1cc(C)nc(NCc2ccccc2)n1,1.0,30,0.68,/,/,/,/,4,0.9,/
COc1cccc2cc(C(=O)NCCc3c[nH]c4ccccc34)c(=O)oc12,-0.1,4,0.71,-3,0,2.3,-5.6,-5,-2.3,i
CC1=C(C(=O)Nc2ccccc2)C(c2coc3ccccc3c2=O)C2=C(CCCC2=O)N1 (centres undefined),1.1,10,0.69,-24,-21,-7.0,2.7,4,7.4,i

# Next results follow.
SMILES,Bfl-1 A1 inh,T cruzi repl,Ecoli growth,Ecoli rRNA inh,Ecoli rRNA inh OD600,Ecoli rRNA inh RFP,AF4-AF9 inh,Beta apoptosis,UCH37 inh,FGF22 binding
CCN(CC)Cc1c(O)ccc2c1O/C(=C\C=C\c1ccccc1)C2=O,-0.8,60*,0.7,16,8,18,?,105*,13,/
Cc1cc(NC(=O)C2CCN(S(=O)(=O)c3c(C)noc3C)CC2)ccc1Br,?,15,0.72,11,5,3.8,1.2,1,-0.9,i
CCc1cccc(C)c1NC(=O)c1ccccc1,-0.1,11,0.67,-1,2,-2.5,-0.6,-5,2.0,i
COc1cccc(N2CCN(S(=O)(=O)c3cn(C)cn3)CC2)c1,1.1,12,0.66,6,6,-0.9,0.9,-6,3.3,i
COc1ccccc1CNC(=O)C1CC(=O)N(C2CCCC2)C1 (centres undefined),-0.4,6,0.71,/,/,/,/,1,4.1,/
Fc1ccc2c(c1)c1n[nH]c(=S)nc1n2CCc1ccccc1,/,-11,0.68,16,10,4.6,-1.6,/,4.0,i
Cc1nc(-c2ccccc2)sc1C(=O)CSc1ccc(Br)cc1,-2.6,-5,0.76,/,/,/,/,-9,2.3,/
Cc1ccc(CN2C(=O)CCC2C(=O)NCCN(CC(C)C)CC(C)C)cc1 (centres undefined),-0.7,5,0.75,/,/,/,/,-4,-4.0,/
CC(NC(=O)COC(=O)/C=C/c1cccc(C(F)(F)F)c1)c1ccccc1 (centres undefined),0.4,-7,0.72,/,/,/,/,-5,3.7,/
COc1ccccc1N1CCN(C(=O)c2cn(-c3ccccc3)nc2-c2cccnc2)CC1,-0.9,-16,0.72,/,/,/,/,/,7.2,/
N/C(Cc1ccc([N+](=O)[O-])cc1)=N\OC(=O)COc1cccc2ccccc12,?,17,/,-8,-3,-6.3,6.6,0,/,i
COc1ccc(C(=O)O/N=C(\N)c2ccc(Br)cc2)cc1,0.0,13,0.68,21,27,1.5,2.3,-10,4.7,i
CCCCCn1c(SCC(=O)c2ccccc2)nc2cc(C(=O)NCC3CCCO3)ccc2c1=O (centres undefined),/,/,0.71,10,8,5.7,-30,/,1.2,i
CCN1CCN(c2ccc(NC(=O)CCc3c(C)nc4c(-c5ccccc5)c(C)nn4c3C)cc2)CC1,0.8,15,0.73,-5,-6,6.5,4.1,/,1.9,i
O=c1cc(CSc2ccc(Cl)cc2)nc2nc[nH]n12,-1.7,-5,0.66,/,/,/,/,3,-0.2,/
Cc1cccc(C)c1NC(=O)NC1(C(=O)N2CCCC2)CCCCC1,-0.2,-5,0.7,-1,1,-2.4,3.5,-5,2.5,i
COCCN(C(=O)CCC(=O)Nc1nccs1)C(C(=O)NC(C)(C)C)c1ccc(Cl)cc1 (centres undefined),-0.4,-13,0.69,23,18,4.3,-0.8,/,2.5,i
CCCCSc1nc2c(cnn2-c2ccc(Cl)cc2)c(=O)[nH]1,2.6,-4,0.7,/,/,/,/,3,2.7,/
NC(=O)c1cc(S(=O)(=O)NCCc2ccccc2)cs1,-0.2,0,0.73,24,10,2.2,0.0,2,0.9,i
CCc1ccc(NC(=O)N(Cc2ccco2)C(C)c2cccs2)cc1 (centres undefined),0.4,14,0.67,/,/,/,/,8,0.4,/
COc1cccc(N/C=C/C(=O)c2ccc(OC)c(OC)c2)c1,-7.0,-7,0.68,5,3,3.4,-2.0,6,-3.0,i
COc1cc(/C=N/NC(N)=O)ccc1OC(=O)c1cccs1,1.4,-12,/,-20,-12,-5.1,0.2,3,/,/
CCCCCOc1ccc(C(=O)CCC(=O)Nc2ccc(NC(C)=O)cc2)cc1,-0.7,-4,0.67,3,9,-2.3,1.0,/,1.5,i
O=C(CN1CCN(c2ccc(O)cc2)CC1)Nc1cc(S(=O)(=O)N2CCOCC2)ccc1Cl,-1.3,-5,0.71,/,/,/,/,8,6.8,/
Cc1cccc(-c2n[nH]c(=S)n2-c2ccccc2)c1[N+](=O)[O-],-1.1,1,0.68,/,/,/,/,-3,-0.1,/
O=C(N/N=C/c1ccc(Sc2ccccn2)o1)c1cc2ccccc2cc1O,-8.0,-6,/,/,/,/,0.0,-5,/,i
COc1ccc(CCNC(=O)COC(=O)c2ccco2)cc1OC,0.4,-9,0.72,/,/,/,/,/,-1.4,/
COCC(C)n1c(SCC(=O)Nc2sccc2C(N)=O)nc2ccccc2c1=O (centres undefined),-1.4,/,0.66,-7,-22,5.2,3.7,-2,-1.6,i
NC(=O)C1=C[C@H](c2coc3ccccc3c2=O)C[C@H](OCCCCO)O1,1.2,-17,/,4,3,1.5,-35,-10,0.9,i
COC(=O)C1CCN(C(=O)CSc2ccccc2)CC1,0.2,4,0.68,/,/,/,/,-4,2.3,/
COc1ccc(NC(=O)Nc2cc(C(=O)O)ccc2N2CC3CC(C2)c2cccc(=O)n2C3)c(OC)c1 (centres undefined),-0.1,8,0.68,7,14,2.6,4.4,-1,1.0,i
Cc1cc(C(=O)N/N=C2\CC(=O)c3ccccc32)c(C)n1-c1ccccc1,-9.0,11,/,-3,2,3.7,2.2,1,/,i
CCOc1nc(Nc2ccc([N+](=O)[O-])cc2)nc(NC(C)(C)C)n1,0.4,35,0.7,/,/,/,/,43,8.0,/
Cc1nn(C)c(C)c1CN(C)S(=O)(=O)c1ccc2ccccc2c1,0.0,/,0.65,/,/,/,/,109*,-0.1,/
COc1ccc(NC(=O)CCc2ccccc2)cc1NC(=O)c1ccco1,0.7,/,0.66,/,/,/,/,0,0.9,/
CNS(=O)(=O)c1cccc(C(=O)OCC(=O)NC(C)CCc2ccccc2)c1 (centres undefined),1.3,-2,0.67,4,-1,-0.9,1.1,-4,0.4,i
O=C(NCCc1ccccc1F)C1CCC(=O)N(Cc2ccccc2F)C1 (centres undefined),0.2,1,0.66,10,10,1.8,-2.2,-3,4.8,i
COc1ccccc1N=c1scc(-c2ccc3c(c2)NC(=O)CO3)n1CC1CCCO1 (centres undefined),0.3,17,0.74,/,/,/,/,3,-0.2,/

# Entries listed so far marked active in UCH37 inh.
Molecule,Ecoli growth,Ecoli rRNA inh,Ecoli rRNA inh OD600,Ecoli rRNA inh RFP,AF4-AF9 inh,UCH37 inh,FGF22 binding
COC1=C(c2ccccc2)C(=O)c2ccccc2C1=O,0.64,/,/,/,/,27*,/

# High-throughput results (PubChem BioAssay)

# Only part of the results is shown; rates above refer to the full screens.
